TRPC4 act: activators of mouse TRPC4 channel, primary screen, Fluo4 calcium, HEK293 TRPC4beta/mu-opioid cells; Short transient receptor potential channel 4 (Mus musculus), Q9QUQ5; Fluo4 calcium fluorescence; hits give high values; B-score at 10 µM; 0.49% of 310,000 active; AID 2237, 2010;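 active means B-score above 5 SD of library B-scores, and initial fluorescence ratio not above library mean plus 5 SD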;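 further: positive B-score marks a calcium rise read as TRPC4 activation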
Target sequence (Q9QUQ5 whole entry, looked up): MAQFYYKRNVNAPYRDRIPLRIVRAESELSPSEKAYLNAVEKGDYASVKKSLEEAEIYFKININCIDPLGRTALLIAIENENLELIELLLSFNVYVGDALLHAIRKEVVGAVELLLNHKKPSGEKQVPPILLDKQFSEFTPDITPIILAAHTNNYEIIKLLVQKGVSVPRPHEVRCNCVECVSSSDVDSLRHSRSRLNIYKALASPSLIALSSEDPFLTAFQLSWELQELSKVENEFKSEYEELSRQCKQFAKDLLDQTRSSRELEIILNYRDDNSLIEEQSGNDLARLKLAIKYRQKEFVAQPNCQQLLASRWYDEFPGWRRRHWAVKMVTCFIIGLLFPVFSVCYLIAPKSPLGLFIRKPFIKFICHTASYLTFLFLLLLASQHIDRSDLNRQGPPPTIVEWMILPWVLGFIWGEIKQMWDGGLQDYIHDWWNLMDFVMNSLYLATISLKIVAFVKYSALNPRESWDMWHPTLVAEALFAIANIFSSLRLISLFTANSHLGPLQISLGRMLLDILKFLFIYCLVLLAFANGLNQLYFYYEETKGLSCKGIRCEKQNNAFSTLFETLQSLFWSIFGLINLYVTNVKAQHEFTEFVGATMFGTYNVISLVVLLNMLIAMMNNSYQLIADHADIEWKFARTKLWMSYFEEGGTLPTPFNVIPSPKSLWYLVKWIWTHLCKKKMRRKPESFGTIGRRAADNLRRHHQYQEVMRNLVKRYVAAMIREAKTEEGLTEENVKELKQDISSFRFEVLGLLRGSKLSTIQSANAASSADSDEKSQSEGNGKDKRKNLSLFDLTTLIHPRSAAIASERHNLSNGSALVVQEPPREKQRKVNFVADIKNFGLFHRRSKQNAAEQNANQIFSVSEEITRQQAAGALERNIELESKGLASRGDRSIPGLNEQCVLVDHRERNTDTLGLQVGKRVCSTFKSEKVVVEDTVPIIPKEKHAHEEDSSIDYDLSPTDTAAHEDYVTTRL
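System: HEK293 cells stably co-expressing mouse TRPC4beta and mu-opioid receptor; Schedule: Fluo4 dye loading 45 min at room temperature, 110 s recording; Detection: Fluo4 fluorescence, kinetic; Evaluation: B-scored integrated calcium fluorescence ratio; Controls: buffer (low) and maximal DAMGO (high).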
MrgX1 PAM: positive allosteric modulators of MrgX1, primary screen, HEK293 cells, Fluo-4 calcium flux; Mas-related G-protein coupled receptor member X1 (Homo sapiens), Q96LB2; FDSS; hits give high values; B-score at 10 µM; 0.63% of 310,000 active; AID 588675, 2011;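 active means plate-corrected calcium response at least 3 library SD above typical, normal starting fluorescence, not activating the receptor alone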;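 further: compound read alongside a low EC10 to EC30 dose of BAM8-22 agonist; peak minus trough fluorescence over baseline measured at the second addition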
PolyA inh: polyadenylation inhibitors in yeast reporter cells, primary screen, luminescence, S. cerevisiae | S. cerevisiae SKY197-pL101 polyadenylation reporter, beta-gal luminescence; efflux-impaired pdr1/pdr3 knockout yeast; score 100 = 6 SD above DMSO | calls only at 12 µM | 0.02% of 300,000 active;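 active means lowest replicate activity score at least 50, where 100 means six control SD above control mean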;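 further: yeast exposed to compound for 9 h at 30 °C; higher score means more reporter readthrough which indicates perturbed polyadenylation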
TRPC4 block: inhibitors of mouse TRPC4 channel, primary screen, Fluo4 calcium, HEK293 TRPC4beta/mu-opioid cells; Short transient receptor potential channel 4 (Mus musculus), Q9QUQ5; DAMGO-evoked Fluo4 calcium flux; hits give low values; B-score at 10 µM; 0.39% of 300,000 active;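 active means B-score over 3 SD under the library average, no early fluorescence shift, positive overall ratio signal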
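test system = HEK293 cells with stable TRPC4beta plus mu-opioid receptor expression | detection = Fluo4 Ca2+ flux fluorescence | read-out = integrated fluorescence ratio relative to baseline, converted to per-well B score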
MrgX1 antagonist: antagonists of human MrgX1 receptor, primary screen, HEK293 cells, Fluo-4 calcium flux. Mas-related G-protein coupled receptor member X1 (Homo sapiens), Q96LB2. BAM8-22 antagonism; hits give low values. B-score at 10 µM. 1.3% of 310,000 active;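 active means calcium-response B-score plate-corrected more than 3 library SD below zero, starting fluorescence within 5 deviations, no agonist response on first addition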;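 further: peak minus trough fluorescence over baseline after final BAM8-22 challenge near maximal dose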
TRPC6 activator: mouse TRPC6 channel activators, primary screen, cell-based, HEK293, membrane potential dye; Short transient receptor potential channel 6 (Mus musculus), Q61143; HEK293-TRPC6 membrane potential dye fluorescence; hits give high values; B-score at 10 µM; 0.13% of 310,000 active;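 active means B-score of the integrated fluorescence ratio above library mean plus 3 SD, and starting fluorescence ratio within library mean plus 5 SD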;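 further: higher score means more depolarization so channel activation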
MrgX1 agonist: agonists of human MrgX1 receptor, primary screen, HEK293 cells, Fluo-4 calcium flux; 0.44% of 310,000 active; Fluo-4 calcium fluorescence, agonist mode; hits give high values; AID 588627, 2011; Mas-related G-protein coupled receptor member X1 (Homo sapiens), Q96LB2; B-score at 10 µM;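 active means calcium response B-score plate-corrected fluorescence ratio at least 3 library SD, with starting fluorescence B-score inside 5 SD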
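Material: HEK293 cells stably expressing human MrgX1 receptor | Quantity: 15,000 cells per well | Times: Cells plated overnight, dye loaded 0.5 h 37 °C, 0.5 h room temperature | Measured by: Kinetic Fluo-4 NW fluorescence of intracellular calcium | Control set: Positive and negative controls per plate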
TRPC6 inh: mouse TRPC6 channel inhibitors, primary screen, cell-based, HEK293, membrane potential dye | 1.1% of 310,000 active | ACh-evoked depolarization; hits give low values | B-score at 10 µM | Short transient receptor potential channel 6 (Mus musculus), Q61143;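 active means B-score under library mean minus 3 SD, initial fluorescence not abnormally high, positive integrated signal ratio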;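 further: B-score derived from integrated fluorescence ratio over the kinetic read; more negative B-score means stronger inhibition of depolarization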
TRPC4 potent: positive allosteric modulators of TRPC4, primary screen, cell-based, mouse TRPC4beta, HEK293 mu-opioid, Fluo-4 calcium | 0.42% of 310,000 active | AID 2227, 2009 | B-score at 10 µM | DAMGO EC20, Fluo-4 Ca2+ flux; hits give high values | Short transient receptor potential channel 4 (Mus musculus), Q9QUQ5;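 active means B-score of calcium response area above 5 SD of library B-scores, with initial fluorescence ratio within 5 SD of library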;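 further: B-score of integrated fluorescence ratio over time as area under calcium response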
AI-2 QS mod: Vibrio harveyi AI-2 quorum sensing modulators, primary screen, JMH597 strain, luminescence/OD600 ratio. Vibrio harveyi JMH597 AI-2 luminescence/OD600 ratio, 9 h; hits give low values; strain lacks LuxN and CqsS sensors; 0 = neutral-control median. activity change, % at 7.5 µM. 0.4% of 300,000 active; in the data active means activity change below about -75%, passing the limit was not always enough;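 further: luminescence divided by OD600 gain over 9 h not by final OD600 alone; inactives centre near 13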
Starred values were filed as active, the others as inactive; i = inactive; · = no result given; & = joins results of further samples.

SMILES | TRPC4 act | MrgX1 PAM | PolyA inh | TRPC4 block | MrgX1 antagonist | TRPC6 activator | MrgX1 agonist | TRPC6 inh | TRPC4 potent | AI-2 QS mod
N#C/C(C(=O)N1CCOCC1)=C1/SC(Cc2ccccc2)C(=O)N1c1ccccc1 (stereo unspecified) | i | i | i | i | i | i | i | i | i | 7
CN(C)CCC(c1ccc(Cl)cc1)c1ccccn1 (stereo unspecified) | i | i | i | i | i | i | i | i | i | -3&18
O=S(=O)(c1ccccc1)N1CCC(N2CCCCCC2)CC1 | i | i | i | i | i | i | i | i | i | 12
CCCCCSc1nc(C)c(CC(=O)O)c(=O)[nH]1 | i | i | i | i | i | i | i | i | i | 20
NC(=S)N/N=C/c1c[nH]c2ccccc12 | i | i | i | i | i | i | i | i | i | 16
CCN(CC)c1nc(C)c2c(c1C#N)CC(C)(C)OC2 | i | i | i | i | i | i | i | i | i | 23
COC(=O)c1ccccc1OCc1cccc(C)n1 | i | i | i | i | i | i | i | i | i | 12
CN1CCN(CCCN2c3ccccc3Sc3ccc(C(F)(F)F)cc32)CC1 | i | i | i | i | i | i | i | i | i | 5
COc1ccc(Cl)cc1N=Cc1c(O)cc(C)oc1=O | i | i | i | i | i | i | i | i | i | 12
N#Cc1c2c(c(-c3ccccc3)[nH]c1=O)CCCC2 | i | · | i | i | · | i | · | i | i | 33
C/C(NC(=O)c1ccccc1F)=C1\C(=O)C[C@@H]2[C@H]1C2(C)C | i | i | i | i | i | i | i | i | i | 22
O=C1CC(c2ccccc2)n2nc(N3C(=O)c4ccccc4C3=O)nc2N1 (stereo unspecified) | i | i | i | i | i | i | i | i | i | 14
CC(N=C(NC#N)Nc1ccncc1)C(C)(C)C (stereo unspecified) | i | i | i | i | i | i | i | i | i | 14&6
O=C(CCc1ccc(O)cc1)c1c(O)cc(O)cc1O | i | i | i | i | i | i | i | i | i | -14
CC(C)CC(NC(=O)OC(C)(C)C)C(=O)NCc1ccccc1 (stereo unspecified) | i | i | i | i | i | i | i | i | i | 24
Cc1cc(C)n(CC(=O)n2c3c(c4ccccc42)CCCC3)n1 | i | i | i | i | i | i | i | i | i | 11
CC1(C)NC(=O)N(CC(O)COc2cc3ccccc3cc2C(=O)N2CCCCC2)C1=O (stereo unspecified) | i | i | i | i | i | i | i | i | i | 24
COc1cccc(OC)c1OCC(C)CNCC1CCCO1 (stereo unspecified) | i | i | · | i | i | i | i | i | i | -6
C[n+]1cccc(CNC(=O)/C=N/O)c1 | i | i | i | · | i | i | i | i | i | 15
COc1cccc(C2CC(c3ccccc3Cl)n3nc(N)nc3N2)c1 (stereo unspecified) | i | i | i | i | i | i | i | i | i | 22
COC(=O)C(NC(=O)c1ccco1)(Nc1nc(C)cs1)C(F)(F)F (stereo unspecified) | i | i | i | i | i | i | i | i | i | -7
CN(C)CCC(c1ccc(Br)cc1)c1ccccn1 (stereo unspecified) | i | i | i | i | i | i | i | i | i | 2
Cn1cccc1/C=N/n1cnnc1 | i | i | i | i | i | i | i | i | i | 24
O=C(NCc1cccnc1)NC(C(F)(F)F)C(F)(F)F | i | i | i | i | i | i | i | i | i | 13
CN1CCN(CC(=O)N2c3ccccc3C(=O)Nc3cccnc32)CC1 | i | i | i | i | i | i | i | -6* | i | 3
COc1cc(C2NC(=O)NC(C)=C2C(=O)Nc2cccc(C)c2C)cc(OC)c1OC (stereo unspecified) | i | i | i | i | i | i | i | i | i | 5
CCc1c(C)c(C#N)c2nc3ccccc3n2c1-n1nc(C)cc1C | i | i | i | i | i | i | i | i | i | 9
CC[C@]12CCCN3CCc4c(n(c5ccccc45)C(=O)C1)[C@@H]32 | · | i | · | · | i | · | i | · | · | ·
CCN(CC)CCN1C(=O)C(=O)/C(=C(/O)c2c(C)[nH]c(C(=O)OC)c2C)C1c1ccccc1 (stereo unspecified) | i | i | i | i | i | i | i | i | i | 19
C=CCOc1ccc(C2/C(=C(\O)c3ccc(F)cc3)C(=O)C(=O)N2CCCN(C)C)cc1 (stereo unspecified) | i | i | i | i | i | i | i | i | i | 13
CCOC(=O)CCNc1n[nH]c(=O)[nH]c1=O | i | i | i | i | i | i | i | i | i | -3
Cn1c(NCC(O)c2ccccc2)nc2c1c(=O)n(Cc1ccc(Cl)c(Cl)c1)c(=O)n2C (stereo unspecified) | i | i | i | i | i | i | i | i | i | 21
Cc1ccccc1NC(=O)NCCc1nc2ccccc2[nH]1 | i | i | i | i | i | i | i | i | i | 1
Nc1ncnc2c1ncn2C1OC(CO)C(O)C1O (stereo unspecified) | i | 9.4* | i | i | i | i | i | i | i | 14
C=CCn1c(SCC(=O)NC23CC4CC(CC(C4)C2)C3)nc(O)cc1=O | i | i | i | i | i | i | i | i | i | 12
O=C(CN1C(=O)c2ccccc2S1(=O)=O)NCCSCc1ccco1 | i | i | i | · | i | i | i | i | i | 9
N#CC1=C(N)NC(SCc2ccc(F)cc2)=C(C#N)C12CCCCC2 | i | i | i | i | i | i | i | i | i | -13
CC[C@]12CCCN3CCc4c(n(c5ccccc45)C(=O)C1)C32 (stereo partly specified) | i | i | i | i | i | i | i | i | i | 14
CC1CC2C3CCC4=CC(=O)C=CC4(C)[C@@]3(Cl)C(O)CC2(C)C1(O)C(=O)CO (stereo partly specified) | i | i | i | i | i | i | i | i | i | 18
CCCC(=O)Nn1cnc2c(c1=O)C1(CCCC1)Cc1ccccc1-2 | i | i | i | i | i | i | i | i | i | -4

Compounds shown so far that contain a CF3 group, in the order listed:
SMILES | TRPC4 act | MrgX1 PAM | PolyA inh | TRPC4 block | MrgX1 antagonist | TRPC6 activator | MrgX1 agonist | TRPC6 inh | TRPC4 potent | AI-2 QS mod
CN1CCN(CCCN2c3ccccc3Sc3ccc(C(F)(F)F)cc32)CC1 | i | i | i | i | i | i | i | i | i | 5
COC(=O)C(NC(=O)c1ccco1)(Nc1nc(C)cs1)C(F)(F)F (stereo unspecified) | i | i | i | i | i | i | i | i | i | -7
O=C(NCc1cccnc1)NC(C(F)(F)F)C(F)(F)F | i | i | i | i | i | i | i | i | i | 13

(continued)
SMILES | TRPC4 act | MrgX1 PAM | PolyA inh | TRPC4 block | MrgX1 antagonist | TRPC6 activator | MrgX1 agonist | TRPC6 inh | TRPC4 potent | AI-2 QS mod
O=c1/c(=C/c2ccccn2)sc2n1CN(c1ccccc1)CN=2 | i | i | i | i | i | i | i | i | i | 25
CC(NC(=O)Nc1nccs1)(C(F)(F)F)C(F)(F)F | i | i | i | i | i | i | i | i | i | 13
COc1cc(-c2nn3c(-c4cccnc4)nnc3s2)cc(OC)c1OC | i | i | i | i | i | i | i | i | i | 27
CCc1ccc(NC(=O)CSC2=C(C#N)C(c3ccc4c(c3)OCO4)CC(=O)N2)cc1 (stereo unspecified) | i | i | i | i | i | i | i | i | i | 16
CCOC(=O)C(NC=O)(NC(C)(C)C)C(=O)OCC | i | i | i | i | i | i | i | i | i | 30
Clc1ccc(-n2ncc3c(NCc4ccco4)ncnc32)cc1 | i | i | i | i | i | i | i | i | i | 13
c1cnc(N2CCN(Cc3ccc4c(c3)OCO4)CC2)nc1 | i | i | i | i | i | i | i | i | i | 8
CCOC(=O)c1[nH]c2ccccc2c1NC(=O)CN(C)C | i | i | i | i | i | i | i | i | i | 30
O=[N+]([O-])c1cc(Cl)cc2c1nc(NCCO)c1ccccc12 | i | i | i | i | i | i | i | i | i | -8
O=c1cc(-c2ccccc2)oc2cc(O)cc(O)c12 | i | i | i | i | i | i | i | i | i | 26
CC(C)(Oc1ccc(Cl)cc1)C(=O)O | i | i | i | i | i | i | i | i | i | 16
OCCNC1=NCCN1 | i | i | i | i | i | i | i | i | i | 23
CCOC(=O)c1nc(N)c(C(=O)OCC)[nH]1 | i | i | i | i | i | i | i | i | i | 21
CCOC(=O)CSC1=C(C#N)C(=O)NC(c2ccc(OC)c(OC)c2)S1 (stereo unspecified) | i | i | i | i | i | i | i | i | i | 16
CC(=O)OCc1c(COC(C)=O)[n+](=O)c2ccccc2n1[O-] | i | i | i | i | i | i | i | i | i | 9
Cc1cc(C)c2nc(SCCC#N)nc(C)c2c1 | i | i | i | i | i | i | i | i | i | -16
Cc1ccc(-n2ncc3c(N4CCC(C(N)=O)CC4)ncnc32)c(C)c1 | i | i | i | i | -10* | i | i | i | i | 14
N/C(CCN1CCOCC1)=N/O | i | i | i | i | i | i | i | i | i | 16
CC1(C)CC(=O)C2=C(C1)OC(N)=C(C#N)C2C1C=CCCC1 (stereo unspecified) | i | i | i | i | i | i | i | i | i | 8
O=C1Nc2ccccc2C1=Nc1ccc(S(=O)(=O)Nc2nccs2)cc1 | i | i | i | i | i | i | i | i | i | -2

Looked up by structure from above, 2 records:
SMILES | TRPC4 act | MrgX1 PAM | PolyA inh | TRPC4 block | MrgX1 antagonist | TRPC6 activator | MrgX1 agonist | TRPC6 inh | TRPC4 potent | AI-2 QS mod
Cc1cc(C)c2nc(SCCC#N)nc(C)c2c1 | i | i | i | i | i | i | i | i | i | -16
N/C(CCN1CCOCC1)=N/O | i | i | i | i | i | i | i | i | i | 16

(cont.)
SMILES | TRPC4 act | MrgX1 PAM | PolyA inh | TRPC4 block | MrgX1 antagonist | TRPC6 activator | MrgX1 agonist | TRPC6 inh | TRPC4 potent | AI-2 QS mod
O=C(O)CC[C@@H](C(=O)O)N1C(=O)c2ccccc2C1=O | i | i | i | i | i | i | i | i | i | 15
CCN(CC)c1nc(N2CCOCC2)c(C#N)c2c1CN(C)CC2 | i | i | i | i | i | i | i | i | i | 19
O=C1CCC(c2ccc(-n3ccnc3)cc2)=NN1 | i | i | i | i | i | i | i | i | i | -26
COCCCn1cnc2c(c1=O)c1nc3ccccc3nc1n2CCc1ccccc1 | i | · | i | i | · | i | · | i | i | 11
C=CCOc1nc2c(c(=O)n(C)c(=O)n2C)n1Cc1ccc(Cl)cc1 | i | i | i | i | i | i | i | i | i | 22

Bioassay records as filed in PubChem.

A portion of the library; count on the stated rates, not on these rows.
